Screens: PubChem, several laboratories
HIV Env fusion: inhibitors of HIV Env-mediated cell fusion. 360,000 tested, 1.1% active. inhibition, % at 12.3 µM. AID 651610. HeLa-JRFL Env/CEM21 cell fusion, luciferase;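 active means mean replicate inhibition score of at least 50 and every replicate individually at or above 50; inconclusive means only one of the two criteria met; inactive means mean below 50 and not all replicates reaching 50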;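 further: 0% = plate neutral controls and 100% = maraviroc near 300 nM; one replicate is shown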
CSC inhib: blocks cancer stem cells; 300,000 tested, 1.1% active; cancer stem cell-like cells viability, luminescence; inhibition, % at 7.5 µM; AID 2717;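 active means mean at 75% or more and at least half the replicates too; inconclusive means mean and replicates disagree; tested in HMLE shEcad cells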;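 further: 0% = median of negative and 100% = median of positive control wells; the first replicate is given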
Rce1 inhib: yeast Ras-converting enzyme inhibition; yeast membranes, quenched prenylated peptide cleavage fluorescence; calls only; 290,000 tested, 0.27% active; AID 2563;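 active means fall in fluorescence gain of 50% or more versus controls, with final raw signal at or below 3038400; inconclusive means same 50% fall but final raw signal above 3038400; inactive means fall in fluorescence gain under 50%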;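 further: plate controls were neutral control wells for no effect and wells lacking membranes for full effect; tested at 10 µM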
Target sequence (Q03530 whole entry, looked up): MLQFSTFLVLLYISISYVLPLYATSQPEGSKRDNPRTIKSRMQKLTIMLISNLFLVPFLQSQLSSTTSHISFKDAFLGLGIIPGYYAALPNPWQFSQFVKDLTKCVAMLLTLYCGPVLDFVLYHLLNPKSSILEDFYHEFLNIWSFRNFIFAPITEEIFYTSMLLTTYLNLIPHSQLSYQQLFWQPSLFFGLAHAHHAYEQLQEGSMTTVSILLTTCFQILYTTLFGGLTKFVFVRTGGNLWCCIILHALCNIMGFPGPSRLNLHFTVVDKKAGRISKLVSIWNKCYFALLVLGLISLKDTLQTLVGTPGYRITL
MT1-MMP act inh: blocks activation of human MT1-MMP. 360,000 tested, 0.061% active. P50281. AID 651647. HT1080 RFP-PRO-GFP cells, GFP/RFP ratio fluorescence, overnight; percent of plate control window, DMSO zero. GFP/RFP ratio change, % at 20 µM;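 active means GFP/RFP ratio change of at least 30% with cell ATP level not reduced by more than half and red fluorescence within 50% of control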; further: strong numbers were not always called active
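Material: RFP-PRO-GFP reporter HT1080 cells. Dosing: single-point 20 µM compound, 1% DMSO. Controls: DMSO and RFP-L50D-GFP cell wells. Timing: cells overnight before dosing, compound overnight, 37 °C, 5% CO2. Measure: GFP/RFP fluorescence ratio.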
UUG fidelity: alters start codon recognition fidelity in yeast; S. cerevisiae UUG-firefly luciferase reporter, luminescence/redox ratio; AID 602363; activity score, % at 18.7 µM; 350,000 tested, 0.13% active;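 active means replicate mean at a twofold rise or more, about +100% in these data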;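 further: firefly luciferase made from a UUG start codon reports start codon fidelity; reporter light over untreated wells divided by growth signal over untreated wells; some hits fall short of that in this replicate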
PABP FP inh: PABP-poly(A) binding inhibition; P11940; PABP-poly(A) RNA binding, fluorescence polarization; inhibition, % at 35 µM; 290,000 tested, 1% active; AID 2014;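 active means 50% or more with normal probe brightness, or confirmed in later tests; inconclusive means above 50% with abnormal brightness, or retests that disagree; inactive means below 50% or failed in later tests; about a fifth of its hits are not listed in these tables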;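 further: calls also rest on retests at 20 µM and on dose response follow-up; controls were probe without protein and protein plus probe with vehicle; some compounds called inactive have numbers as strong as hits; many hits fall short of the cut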
eIF4H inh: inhibitors of RNA binding by human eIF4H | Q15056 | eIF4H fluorescence polarization binding assay | inhibition, % at 35 µM | 290,000 tested, 0.94% active;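 active means 50% or more with normal probe brightness, or confirmed in later tests; inconclusive means above 50% with abnormal brightness, or retests that disagree; inactive means below 50% or failed in later tests; about a fifth of its hits are not listed in these tables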;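 further: calls also rest on retests at 20 µM and on dose response follow-up; 0% = protein and probe with vehicle and 100% = probe without protein; strong numbers were not always called active; many hits fall short of the cut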
eIF4H inh retest: also measured in eIF4H inh; calls as there; inhibition, %; compound at 20 µM; confirmation average;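 mean of two retest wells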
PABP FP inh retest: recorded beside PABP FP inh, whose call it bears; inhibition, %; compound at 20 µM; confirmation repeats;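 mean of two retest wells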
MT1-MMP act inh RFP: further read-out of MT1-MMP act inh, marked with its call; RFP signal change, %; measured here: RFP expression control read;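 0 = vehicle wells; hits needed this value within 50% of zero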
An asterisk follows results filed as active; i = inactive; ? = inconclusive; nt = not tested or not shown. Not all compounds are listed, so the mix of outcomes need not match the whole.

SMILES	HIV Env fusion	CSC inhib	Rce1 inhib	MT1-MMP act inh	MT1-MMP act inh RFP	UUG fidelity	PABP FP inh	eIF4H inh	others
O=C1CCC(C(=O)N2CCN(c3ccc(F)cc3)CC2)CN1CC1CCCCC1 (stereo not drawn)	-3	-3	i	1	1	-4	-8	-5
CC(=O)NC1C(=O)N(CCN2CCOCC2)c2ccc(C)cc21 (stereo not drawn)	nt	-5	i	3	5	nt	2	-14
CCOc1cnn(-c2ccccc2)c(=O)c1Cl	0	0	i	2	0	nt	-1	-4
CN(CCN1CCOCC1)C(=O)CC1C(=O)NCCN1Cc1ccccc1C(F)(F)F (stereo not drawn)	0	8	i	-4	3	-1	7	-1
CN1CCN(CCCNC(=O)CCc2nnc3n(Cc4ccccc4Cl)c(=O)c4ccccc4n23)CC1	3	3	i	3	2	-5	-6	-4
Cc1ccccc1-c1nnn(C/C(N)=N/O)n1	-7	-11	i	3	9	nt	-5	-14
Cc1ccc(-c2nnn(CC(=O)N(Cc3cccs3)C(C(=O)NC(C)(C)C)c3ccc(C)o3)n2)o1 (stereo not drawn)	?	-3	i	6	3	-24	10	1
C(=N\Nc1ccccc1)/c1ccc(N2CCOCC2)cc1	nt	39	i	0	4	-31	9	-6
CCOc1ccc(Cc2c(Cl)nc(N)nc2Cl)cc1	-11	-9	i	-6	-7	-12	-6	0
CC(=O)/C(=N\Nc1ccc(Cl)cc1Cl)Sc1nnc(-c2ccccc2)n1-c1ccccc1	nt	-7	i	-4	-4	-19	-1	-8
COc1ccccc1CN(C)C(=O)c1ccc(S(=O)(=O)Nc2c(C)n(C)n(-c3ccccc3)c2=O)cc1	10	-9	nt	-1	-1	9	nt	nt
N#Cc1sc(NCc2ccccc2)nc1Cl	-13	-3	i	1	1	nt	-12	7
O=C(NC1CCCC1)C(c1ccncc1)N(C(=O)Cc1cccs1)c1cccc(F)c1 (stereo not drawn)	14	nt	i	0	3	-11	7	8
COc1ccc(CNC(=S)Nc2cccc(C)c2C)cc1	nt	-5	i	4	0	-33	4	-12
O=C(Nc1ccc(Br)cc1)C1CC(O)CN1C(=O)OCc1ccccc1 (stereo not drawn)	5	-7	i	0	1	-14	7	-1
CC(C)CCNC(=O)COC(=O)/C=C/c1ccc2ccccc2n1	2	4	i	-3	-4	-13	-3	-8
NC(=O)CN1C(=O)NC2(CCOc3ccccc32)C1=O (stereo not drawn)	0	-12	i	-4	-2	-9	-2	-1
CCOC(=O)C1CCCN(C(=O)c2ccc3ncsc3c2)C1 (stereo not drawn)	-1	-8	nt	-4	4	-5	nt	nt
Cc1cc(C)c(C(=O)CN2C(=O)C(=O)N(C3CCCC3)C2=O)cc1C	15	6	nt	-1	0	-4	nt	nt
COc1ccccc1C(=O)Nc1ccc(-c2nnn(CC(=O)NCc3ccco3)n2)cc1	-2	-2	i	5	5	-11	-12	2
COc1ccc(NC(=O)CN2C(=O)COc3ccc(S(=O)(=O)N4CCOCC4)cc32)cc1	-3	-16	i	-2	3	-3	2	20
COc1ccc(NC(=O)c2ccc(CN3CCc4ccccc4C3)cc2)cc1OC	18	7	i	2	-5	-17	13	1
Cc1ccc(NC(=O)CN2C(=O)S/C(=C\c3ccc(-c4cccc(C(=O)O)c4C)o3)C2=O)cc1	nt	8	i	nt	nt	nt	52*	74*
COc1ccc(CNC(=S)Nc2ccccc2F)cc1	-42	-5	i	5	2	-3	-10	-7
O/C=c1\ccc2cccc3nc(C(F)(F)F)nc1c23	5	34	i	-121	13	-9	?	?
O=C(N/N=C/c1ccc(O)cc1O)c1ccc(NC(=O)C2CCCCC2)cc1	19	-4	i	6	2	3	-4	21
Nc1nonc1-n1nnc(C(=O)N/N=C/c2cccc(F)c2)c1-c1ccc2c(c1)OCO2	5	-3	i	-1	0	-5	-6	1
COC(=O)c1ccc(NS(=O)(=O)c2ccc3c(c2)oc(=O)n3C)cc1	-13	6	i	-2	-3	-24	1	-2
Cc1cc(C)cc(NC(=O)CCNS(=O)(=O)c2ccc3c(c2)oc(=O)n3C)c1	6	-20	i	-1	0	nt	2	0
O=C(COC(=O)c1cccc(S(=O)(=O)N2CCN(c3ccc(F)cc3)CC2)c1)NCC1CCCO1 (stereo not drawn)	-5	-19	i	5	4	-6	9	0
O=C(CSc1ccc(-c2ccc(-n3cccn3)cc2)nn1)Nc1ccccc1F	-14	-14	i	4	1	nt	nt	nt
Cc1cc(C2C(C#N)=C(N)OC3=C2C(=O)CC(C)(C)C3)c(C)s1 (stereo not drawn)	nt	19	i	0	-1	-15	2	-1
COc1ccc(-n2nc(C(=O)NCC(=O)NCC3CCCO3)c3ccccc3c2=O)cc1 (stereo not drawn)	2	-1	i	5	1	-18	-5	-8
O=C(COC(=O)c1cc(-c2cccs2)nn1-c1ccccc1)Nc1ccc(F)c([N+](=O)[O-])c1	28	nt	i	2	4	nt	4	-1
O=C(CN1C(=O)NC2(CCCc3ccccc32)C1=O)Nc1cc(F)ccc1F (stereo not drawn)	nt	-1	i	2	0	0	nt	nt
COc1ccc(-c2nc(CSCC(=O)NCc3ccc4c(c3)OCO4)c(C)o2)cc1OC	19	-4	i	11	1	-19	-19	-19
CCC1CCCCN1C(=O)CSc1nc2c(cnn2-c2ccc(C)cc2)c(=O)[nH]1 (stereo not drawn)	-24	-7	i	-1	-6	2	0	3
COc1ccc(CNC(=O)C(C#N)c2nc3ccccc3nc2N2CCCC2)cc1 (stereo not drawn)	nt	17	i	-6	6	-18	96	76	eIF4H inh retest=4;PABP FP inh retest=19
C1CNCCOCCNCCN1	-70	3	i	-3	3	-9	9	6
Cc1cc(C)nc(N2N=C(c3ccccc3)CC2=O)n1	-4	-8	nt	6	5	nt	3	4
CC1(C(=O)NCC2CC2)CCN1C(=O)C1(c2ccccc2)CC1 (stereo not drawn)	4	nt	nt	3	6	-2	nt	nt
COc1ccc(C(=O)Nc2nnc(S(=O)(=O)Cc3ccccc3)s2)cc1	-6	-4	i	0	0	nt	1	5
CCCCn1c(N)c(N(CCOC)C(=O)c2ccc(NC3CC3)c([N+](=O)[O-])c2)c(=O)[nH]c1=O	4	-14	i	1	0	nt	nt	nt
O=C(CCN1C(=O)c2ccccc2C1=O)OCN1C(=O)c2ccccc2C1=O	nt	-9	i	0	1	-3	-14	-2
Cc1ccccc1NC(=S)N(Cc1cccs1)C1CCCC1	9	-7	i	5	2	-24	18	2
CCN(CCCNC(=O)COc1cc(=O)n(CC)c2ccccc12)Cc1ccccc1	-54	-6	i	8	7	-1	4	-2
C=CCSc1nnc(C)n1-c1ccc(Cl)cc1	-5	-12	i	0	-2	-6	0	0
Cc1noc(NC(=O)c2ccc(F)cc2)c1C#N	nt	-16	i	2	0	-14	5	-5
COc1ccc(C(=O)OCC(=O)NCCCc2ccccc2)cc1OC	1	-9	i	-2	2	-16	-6	-10
O=C(Nc1ccc2c(c1)CCC2)Nc1ccc(F)cc1F	-139	-5	i	-2	0	-12	4	9
CCOc1ccccc1NC(=O)C1CCC(CNc2c(N3CCOCC3)c(=O)c2=O)CC1 (stereo not drawn)	9	-11	i	-1	5	-8	-15	-5
CCOc1ccc(N(CC(=O)Nc2nccs2)S(=O)(=O)c2c(C)noc2C)cc1	-118	-1	i	0	-1	-18	-3	-6
Cn1cc(CN2CCC(n3nccc3NC(=O)C3CCCC3)CC2)cn1	-5	-7	i	0	3	-10	7	8
Cc1ccc(CNC(=O)C(=O)NCCC2CCCCN2S(=O)(=O)c2ccccc2)cc1 (stereo not drawn)	8	0	i	-1	-6	15	nt	nt
CCOc1ccc(S(=O)(=O)N2CCCCC2)cc1NC(=O)C1=COCCO1	0	-19	i	2	1	-6	nt	nt
O=C(Nc1ccc(F)cc1F)N1CCN(c2ncccn2)CC1	50	-8	i	1	3	-23	-3	-9
CCOc1cc(NC(=O)c2cccs2)c(OCC)cc1NC(=O)CCC(=O)NCC1CCCO1 (stereo not drawn)	7	-28	i	1	2	7	-15	12
Nc1ccn(CC(=O)NCc2ccccc2)c(=O)n1	6	-1	nt	-1	4	-11	nt	nt
O=C(NCCCN1CCOCC1)c1cc(-c2ccc(F)cc2)no1	13	-4	i	1	5	-5	-8	-2
COc1ccc(C(=O)Nc2ccccc2C(=O)N/N=C/c2ccccn2)cc1OC	12	15	i	7	-2	-53	9	27

Next section:
SMILES	HIV Env fusion	CSC inhib	Rce1 inhib	MT1-MMP act inh	MT1-MMP act inh RFP	UUG fidelity	PABP FP inh	eIF4H inh	others
CCOC(=O)c1ccccc1NC(=O)CSc1ccc(-c2ccccn2)nn1	-1	-3	i	5	4	0	6	5
CCn1c(=O)c2sccc2n2c(CCCC(=O)NCCc3ccc(S(N)(=O)=O)cc3)nnc12	0	-27	i	3	2	-26	-15	-4
COc1cccc(CN2C(=O)CCC2(C)C(=O)NC2CCCCC2)c1 (stereo not drawn)	-1	-11	i	-1	2	-14	-11	0
CCC(=O)NC(=S)Nc1cccc(NC(=O)c2ccco2)c1	7	-6	i	-1	1	nt	-8	-2
O=S(=O)(c1ccccc1)[C@@]1(c2ccccc2)C[C@@H]2ON=C(c3cccc(-c4ccccc4)c3)[C@@H]2C1	22	-19	i	1	-10	-17	nt	nt
CN(C(=O)CSc1nnc(C2CC2)n1-c1ccccc1)C1CCS(=O)(=O)C1 (stereo not drawn)	-13	-12	nt	1	3	-10	nt	nt
COc1ccc(/C=N/N=C2/NC(=O)C(CC(=O)O)S2)cc1OCc1ccccc1Cl (stereo not drawn)	-10	13	i	-2	0	-16	-10	18
Nc1ccccc1Nc1cc(-c2ccccc2)nn1-c1ccccc1	-2	11	i	0	-1	nt	-22	-3
CCc1nc2c(OCc3ccc(F)cc3)cccn2c1N(C)C(=O)c1ccncc1	3	nt	nt	6	-4	-23	nt	nt
Cc1cc(C)c(C)c(OCCOCCN2CCN(C)CC2)c1	12	22	i	3	8	nt	11	-2
Cc1ccccc1CNC(=O)C1CCC(=O)N(C2CC2)C1 (stereo not drawn)	-37	-6	i	6	5	-16	-2	-2
O=C(NC1CCCCC1)N1CCc2[nH]c3ccccc3c2C1	nt	-5	i	-2	3	5	27	38
O=C(Oc1ccc(OC(=O)C2CCC2)cc1)C1CCC1	8	3	i	0	-12	nt	-11	-7
O=C1c2cccc3cc([N+](=O)[O-])cc(c23)C(=O)N1/N=C/c1ccc(O)cc1O	-96	30	i	-27	4	nt	72*	91*	eIF4H inh retest=88*;PABP FP inh retest=93*
S=C(c1cn(Cc2ccc(Br)cc2)c2ccccc12)N1CCOCC1	36	2	i	0	-4	-25	17	7
Cc1ccc(C)c(NC(=O)CS(=O)(=O)c2c[nH]c3ccccc23)c1	-180	-11	i	0	3	-14	-5	-8
O=C(NCc1ccccc1Br)C1CCCO1 (stereo not drawn)	4	-7	i	-2	-1	-10	-4	7

Some of these compounds in order of number of heavy atoms, highest first.
SMILES	HIV Env fusion	CSC inhib	Rce1 inhib	MT1-MMP act inh	MT1-MMP act inh RFP	UUG fidelity	PABP FP inh	eIF4H inh	others
CN(C(=O)CSc1nnc(C2CC2)n1-c1ccccc1)C1CCS(=O)(=O)C1 (stereo not drawn)	-13	-12	nt	1	3	-10	nt	nt
COc1cccc(CN2C(=O)CCC2(C)C(=O)NC2CCCCC2)c1 (stereo not drawn)	-1	-11	i	-1	2	-14	-11	0
O=C(Oc1ccc(OC(=O)C2CCC2)cc1)C1CCC1	8	3	i	0	-12	nt	-11	-7
